TRPV1 PAM: enhances activation of the human vanilloid receptor TRPV1. Q8NER1. TRPV1-expressing cells, Fluo-8 calcium influx, capsaicin EC20 potentiation; host cell line not named in the record; control for the full effect not named in the record. potentiation, % at 8.33 µM. hit rate 0.02% among 320,000. AID 540277; active means potentiation above 80%; inconclusive means 30% to 80%; inactive means below 30%; note: 0% is about no effect
Target sequence (Q8NER1 whole entry, looked up): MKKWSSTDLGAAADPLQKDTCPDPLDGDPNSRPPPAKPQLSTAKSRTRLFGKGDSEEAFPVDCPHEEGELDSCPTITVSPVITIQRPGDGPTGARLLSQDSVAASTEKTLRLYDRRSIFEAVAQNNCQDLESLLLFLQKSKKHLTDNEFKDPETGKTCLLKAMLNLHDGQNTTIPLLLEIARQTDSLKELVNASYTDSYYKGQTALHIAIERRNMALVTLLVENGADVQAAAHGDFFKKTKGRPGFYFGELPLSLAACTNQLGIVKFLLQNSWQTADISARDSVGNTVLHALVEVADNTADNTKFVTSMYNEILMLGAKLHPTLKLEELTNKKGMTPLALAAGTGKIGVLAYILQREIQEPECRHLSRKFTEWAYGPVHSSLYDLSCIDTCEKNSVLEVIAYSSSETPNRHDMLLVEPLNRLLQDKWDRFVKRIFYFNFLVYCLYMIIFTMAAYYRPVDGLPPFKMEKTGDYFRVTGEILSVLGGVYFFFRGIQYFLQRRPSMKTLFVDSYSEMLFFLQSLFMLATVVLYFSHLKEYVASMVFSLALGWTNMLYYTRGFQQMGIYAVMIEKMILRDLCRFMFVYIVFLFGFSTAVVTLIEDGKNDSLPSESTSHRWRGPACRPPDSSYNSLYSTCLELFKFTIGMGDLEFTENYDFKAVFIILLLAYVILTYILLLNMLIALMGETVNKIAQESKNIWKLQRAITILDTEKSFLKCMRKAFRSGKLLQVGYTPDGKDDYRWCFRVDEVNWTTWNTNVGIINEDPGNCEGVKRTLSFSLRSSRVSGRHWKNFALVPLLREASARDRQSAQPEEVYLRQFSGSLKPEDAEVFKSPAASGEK
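Fluo-8 calcium influx in TRPV1-expressing cells, kinetic read (ex 480/em 520 nm). Compound added and read 3 min for agonist activity, followed by capsaicin at EC20 final and 2 min further read for enhancement.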
CtBP-E1A inh: inhibitors of CtBP/E1A interaction; hit rate 0.49% among 340,000; AlphaScreen GST-E1A/His-CtBP binding, 1536-well; hits give low values; control for the full effect not named in the record; activity change, % (test concentration not listed); AID 651724; in the data active means activity change below about -65%; inconclusive means about -30% to -65%; inactive means above about -30%; note: % is set by controls: 0 for no effect and ±100 for the full control effect; compound concentration not given in the record
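Protein mix (5X: 125 nM each GST-E1A, His-CtBP) was incubated with pinned compound 2 h at 37 deg C in dark, in 50 mM Tris pH 8.0 buffer with 300 mM NaCl. Glutathione donor and nickel acceptor beads followed; AlphaScreen signal read after 1 h.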
Sfp inh: blocks B. subtilis Sfp PPTase activity | Q9F4F7 | Biochemical Sfp PPTase activity, qHTS | Potency, µM, for inactives: max response, negative = inhibition, usual class: inhibitors | hit rate 3.5% among 310,000 | AID 1490; active = well fitted inhibition curve with a large enough effect; inconclusive = small, poorly fitted or top-dose-only effect, or another doubt; inactive = no such curve, though single readings can be large or run the other way;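 note: the enzyme is Sfp with the accession as filed and its product quenches rhodamine fluorescence; potency is the fitted concentration of half-maximal effect; 0% = enzyme reaction without inhibitor and -100% = no enzyme wells; top concentration of the series not given in the record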
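Buffer: 50 mM Hepes-Na pH 7.6, 10 mM MgCl2, 0.01% Nonidet P-40, 0.01% BSA. Enzyme 15 nM, pre-exposed to compound 15 min; substrates then added and fluorescence change tracked over 30 min.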
Six1-Eya2 blk: inhibitors of human Six1/Eya2 interaction. Q15475+O00167. AlphaScreen GST-Six1/His-Eya2 binding, biochemical; hits give low values; control for the full effect not named in the record. activity change, % (test concentration not listed). hit rate 0.56% among 360,000; in the data active = activity change below about -65%; inconclusive = about -30% to -65%; inactive = above about -30%; note: % is set by controls: 0 for no effect and ±100 for the full control effect; compound concentration not given in the record
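Homogeneous AlphaScreen proximity assay pairing GST-Six1 with His-tagged Eya2 (added as 5X mix: 250 nM and 500 nM) in 50 mM Tris pH 8.0, 300 mM NaCl, 1 mM TCEP. Glutathione donor and nickel acceptor beads; 1 h, 37 °C, dark.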
PINK1 expr mod: modulators of PINK1 expression | hit rate 0.2% among 410,000 | Potency, µM (doses to about 76.6 µM), for inactives: top-dose activation (PINK1 increase), usual class: activators | PINK1 immunofluorescence, high-content cytometry, 24 h; active = well fitted activation curve with a large enough effect; inconclusive = small, poorly fitted or top-dose-only effect; inactive = flat fitted curve, though single readings scatter; cell line not stated here;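 note: potency is the fitted concentration of half-maximal effect; % of control where 0% means no effect; nearly all actives have a fitted effect of over 65% in size; a mitochondrial uncoupler was the plate control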
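PINK1 protein level read as immunofluorescence by microplate cytometer in a fixed, stained stable cell line after 24 h exposure to five compound concentrations, with CCCP as control.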
D2 ag: agonists of human D2 dopamine receptor (beta-arrestin). P14416. activation, % (concentration not given with the values). DiscoveRx PathHunter D2 beta-arrestin, luminescence, 90 min; 100% = 57 uM dopamine signal. hit rate 0.084% among 360,000; in the data active = activation above about 40%; inconclusive = about 15% to 40%; inactive = below about 15%; note: compound concentration not given in the record; the text of the record calls up to 30% inactive
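Agonist mode: compounds alone added to overnight-plated D2 PathHunter cells for 90 min at 37 C, with 57 uM final dopamine (EC100) defining full response. Beta-arrestin recruitment detected by chemiluminescent reagent, read after 1 h at ambient temperature.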
D2 PAM: positive allosteric modulators of human D2 dopamine receptor; P14416; DiscoveRx D2 beta-arrestin cells, luminescence, 90 min; 100% = 57 uM dopamine signal; potentiation, % (no concentration beside the values); hit rate 0.23% among 360,000; AID 624464; active = potentiation of 50% or more; inconclusive = 30% to 50%; inactive = 30% or less;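 note: compound concentration not given in the record; tested on top of an EC20 dose of dopamine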
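D2 cells co-treated with compound plus 50 nM dopamine (EC20) for 90 min at 37 deg C to detect potentiation. Beta-arrestin recruitment was read as enzyme-fragment luminescence after 1 h at ambient temperature. Full response was set by 57 uM dopamine.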
* marks the source's active call; other numbers are inactive results; & = joins results of further samples; [ ] = remark or other dose.

Screening C=CCn1c(CSCc2ccccc2)nnc1SCC(=O)NCc1ccccc1 returned CtBP-E1A inh 5, Sfp inh 4%, Six1-Eya2 blk 3, PINK1 expr mod 0.6%, D2 ag -3.3 and D2 PAM -21.
N=c1c(S(=O)(=O)c2ccccc2)cc2c(=O)n3ccccc3nc2n1Cc1ccco1 was read as TRPV1 PAM -17, CtBP-E1A inh -2, Sfp inh inconclusive, Six1-Eya2 blk -10, PINK1 expr mod 5.2%, D2 ag -4.2 and D2 PAM -20.
`COc1ccc(C(=O)N/N=C/c2cc3ccccc3[nH]c2=O)cc1` gave TRPV1 PAM 8, CtBP-E1A inh inconclusive, Sfp inh 10%, Six1-Eya2 blk inconclusive, PINK1 expr mod -0.1%, D2 ag 0.3 and D2 PAM -8.
Screening Cc1cc(NC(=O)CC2Oc3ccccc3NC2=O)ccc1Br (stereo not given) returned TRPV1 PAM 28, CtBP-E1A inh 7, Sfp inh inconclusive, Six1-Eya2 blk 0, PINK1 expr mod 5.0%, D2 ag 1.7 and D2 PAM -4.
For CC(C)c1nnc(SCC(=O)NCc2ccco2)n1C the results were TRPV1 PAM 2, CtBP-E1A inh -5, Sfp inh 6%, Six1-Eya2 blk -5, PINK1 expr mod -0.2%, D2 ag -0.3 and D2 PAM 6.
CCCCN(C(=O)CNC(=O)c1cccs1)C(C(=O)NC1CCCCC1)c1cccnc1 (stereo not given) was read as TRPV1 PAM inconclusive, CtBP-E1A inh 9, Sfp inh 6%, Six1-Eya2 blk -7, PINK1 expr mod -1.1%, D2 ag -5.9 and D2 PAM 8.
Screening O=C(C(c1ccccc1)c1ccccc1)N1CCN(Cc2ccccn2)CC1 returned TRPV1 PAM 9, CtBP-E1A inh 0, Sfp inh -34%, Six1-Eya2 blk 8, PINK1 expr mod -2.6%, D2 ag -7.6 and D2 PAM -2.
CC(=O)NC12CC3CC(C1)CC(C(=O)OCC(=O)c1ccc4c(c1)OCCO4)(C3)C2 was read as TRPV1 PAM -20, CtBP-E1A inh -3, Sfp inh -25%, Six1-Eya2 blk 1, PINK1 expr mod -1.2%, D2 ag -1.7 and D2 PAM 9.
For Oc1ccc(C=NN=C2c3ccccc3-c3ccccc32)c(O)c1 the results were CtBP-E1A inh 2, Six1-Eya2 blk inconclusive, PINK1 expr mod -4.5%, D2 ag -8.4 and D2 PAM -32.
Screening Cc1occc1C(=O)Nc1cccc(/C=C/C(=O)O)c1 returned CtBP-E1A inh -2, Six1-Eya2 blk -3, PINK1 expr mod -0.9%, D2 ag -0.5 and D2 PAM -18.

A draw from above in order of molar mass, rising.
Screening Cc1occc1C(=O)Nc1cccc(/C=C/C(=O)O)c1 returned CtBP-E1A inh -2, Six1-Eya2 blk -3, PINK1 expr mod -0.9%, D2 ag -0.5 and D2 PAM -18.
For CC(C)c1nnc(SCC(=O)NCc2ccco2)n1C the results were TRPV1 PAM 2, CtBP-E1A inh -5, Sfp inh 6%, Six1-Eya2 blk -5, PINK1 expr mod -0.2%, D2 ag -0.3 and D2 PAM 6.
For Oc1ccc(C=NN=C2c3ccccc3-c3ccccc32)c(O)c1 the results were CtBP-E1A inh 2, Six1-Eya2 blk inconclusive, PINK1 expr mod -4.5%, D2 ag -8.4 and D2 PAM -32.
`COc1ccc(C(=O)N/N=C/c2cc3ccccc3[nH]c2=O)cc1` gave TRPV1 PAM 8, CtBP-E1A inh inconclusive, Sfp inh 10%, Six1-Eya2 blk inconclusive, PINK1 expr mod -0.1%, D2 ag 0.3 and D2 PAM -8.
Screening Cc1cc(NC(=O)CC2Oc3ccccc3NC2=O)ccc1Br (stereo not given) returned TRPV1 PAM 28, CtBP-E1A inh 7, Sfp inh inconclusive, Six1-Eya2 blk 0, PINK1 expr mod 5.0%, D2 ag 1.7 and D2 PAM -4.

Additional structures follow:
For COc1ccccc1N1CCN(c2cc(=O)n(Cc3ccc(F)cc3)c(=O)[nH]2)CC1 the results were TRPV1 PAM -10, CtBP-E1A inh 8, Sfp inh 10%, Six1-Eya2 blk 0, PINK1 expr mod 11%, D2 ag 2.8 and D2 PAM -5.
Screening Cc1ccc(CNC(=O)C(CCC(N)=O)NC(=O)OCc2ccccc2)cc1 (stereo not given) returned TRPV1 PAM 15, CtBP-E1A inh -3, Sfp inh 1%, Six1-Eya2 blk 5, PINK1 expr mod -1.4%, D2 ag -0.9 and D2 PAM -14.
Screening O=C1[C@@H](Oc2ccccc2)[C@@H](c2ccccc2)N1c1cccnc1 returned CtBP-E1A inh 1, Six1-Eya2 blk 1, PINK1 expr mod 4.3% and D2 ag 0.3.
O=c1[nH]c(=S)[nH]c2c1C(c1ccc(F)cc1)OC(C1CCCCC1)C2 (stereo not given) was read as CtBP-E1A inh -1, Six1-Eya2 blk 1, PINK1 expr mod 0.9%, D2 ag -4.5 and D2 PAM -13.
For CCc1ccccc1NC(=O)CN1CCN(C(=O)CN2C(=O)NC3(CCCC3)C2=O)CC1 the results were TRPV1 PAM 2, Six1-Eya2 blk 5, PINK1 expr mod 1.3%, D2 ag -1.3 and D2 PAM 7.
Screening CCCCn1c(N)c(N(CCOC)C(=O)c2ccc(N3C(=O)c4ccccc4C3=O)cc2)c(=O)[nH]c1=O returned CtBP-E1A inh 8, Six1-Eya2 blk 0, PINK1 expr mod 0.2%, D2 ag -4.4 and D2 PAM -2.
Screening Cc1cccnc1NC(=O)Cn1nc(-c2ccccc2)oc1=S returned TRPV1 PAM 2, CtBP-E1A inh -10, Sfp inh -31%, Six1-Eya2 blk -6, PINK1 expr mod -0.2%, D2 ag -2.7 and D2 PAM -3.
CCOC(=O)C1C(CC)NC(=S)NC1(C)O (stereo not given) was read as TRPV1 PAM 4, CtBP-E1A inh -18, Sfp inh 8%, Six1-Eya2 blk 5, PINK1 expr mod -0.5%, D2 ag 7.4 and D2 PAM -1.
Screening CN(C)CCC(=O)C(Cc1ccccc1)c1ccccc1 (stereo not given) returned CtBP-E1A inh 0, Six1-Eya2 blk -2, PINK1 expr mod 1.1%, D2 ag -7.5 and D2 PAM -28.
`C/C(CC(=O)NCc1ccco1)=N\NC(=O)COc1ccc(C)cc1` gave TRPV1 PAM -2, CtBP-E1A inh -10, Sfp inh 6%, Six1-Eya2 blk -4, PINK1 expr mod -3.6%, D2 ag -5.0 and D2 PAM -26.
`COc1ccc(/C=C/c2nc(C#N)c(NCCN(C)C)o2)cc1OC` gave TRPV1 PAM -25, CtBP-E1A inh 2, Sfp inh 7%, Six1-Eya2 blk -1, PINK1 expr mod -0.9%, D2 ag 1.8 and D2 PAM -2.
For O=C(Nc1ccccc1[N+](=O)[O-])C1C(c2ccccc2)=C1c1ccccc1 the results were TRPV1 PAM -3, CtBP-E1A inh -1, Sfp inh 12%, Six1-Eya2 blk -4, PINK1 expr mod 3.3%, D2 ag -0.1 and D2 PAM -11.
For Cc1[nH]n(-c2ccccc2)c(=O)c1/C=N/N1C(=O)c2cccc3cccc(c23)C1=O the results were TRPV1 PAM 10, CtBP-E1A inh -12, Sfp inh 15%, Six1-Eya2 blk -8, PINK1 expr mod -0.4%, D2 ag 0.1 and D2 PAM -12.
For O=C(NCCOC(=O)c1ccc(S(=O)(=O)N2CCOCC2)cc1)c1cccnc1 the results were TRPV1 PAM 4, CtBP-E1A inh 5, Sfp inh 12%, Six1-Eya2 blk 2, PINK1 expr mod -1.7%, D2 ag -3.1 and D2 PAM -1.
Screening CCCN(CC(=O)Nc1ccccc1C)C(=O)c1cc(C)oc1C returned TRPV1 PAM -8, CtBP-E1A inh -1, Six1-Eya2 blk 3, PINK1 expr mod 0.2%, D2 ag 3.4 and D2 PAM -4.
For CCCCN(C)S(=O)(=O)c1ccc(C(=O)N=c2sc3cc(NC(C)=O)ccc3n2C)cc1 the results were TRPV1 PAM -8, CtBP-E1A inh 1, Sfp inh 6%, Six1-Eya2 blk 16, PINK1 expr mod 9.1%, D2 ag -6.5 and D2 PAM -4.
`CCOc1ccc(C(CC(=O)O)NC(=O)COc2ccccc2OC)cc1OC` (stereo not given) gave TRPV1 PAM 24, CtBP-E1A inh 2, Sfp inh -1%, Six1-Eya2 blk 3, PINK1 expr mod 0.1%, D2 ag -1.2 and D2 PAM -1.
For CCOc1ccc(NC(=O)C2CCCN(S(=O)(=O)c3ccc4[nH]c(=O)ccc4c3)C2)cc1 (stereo not given) the results were TRPV1 PAM -1, CtBP-E1A inh 2, Sfp inh 21%, Six1-Eya2 blk 2, PINK1 expr mod 8.6%&1.9%, D2 ag 2.5 and D2 PAM -4.
`NC(CC(=O)NC(c1ccccc1)(c1ccccc1)c1ccccc1)C(=O)O` (stereo not given) gave TRPV1 PAM -11, CtBP-E1A inh 6, Sfp inh inconclusive, Six1-Eya2 blk -6, PINK1 expr mod 1.3%, D2 ag -4.6 and D2 PAM -5.
For Cc1cn(CC(=O)NCc2nc3ccccc3[nH]2)c(=O)[nH]c1=O the results were CtBP-E1A inh 7, Six1-Eya2 blk 4 and PINK1 expr mod -1.0%.
For Cc1cc(-c2nn(-c3ccccc3)cc2/C=C2\SC(N)=NC2=O)ccc1OC(C)C the results were TRPV1 PAM 1, CtBP-E1A inh 1, Sfp inh 5%, Six1-Eya2 blk -1, PINK1 expr mod 2.2%, D2 ag -0.5 and D2 PAM 5.
Screening CCOC(=O)Cc1csc(NC(=O)CCS(=O)(=O)Cc2ccccc2)n1 returned TRPV1 PAM 17, CtBP-E1A inh 0, Sfp inh 15%, Six1-Eya2 blk 2, PINK1 expr mod 3.4%[38.3 µM], D2 ag -1.9 and D2 PAM 5.
CNC(=O)c1sc(-c2cccnc2)nc1C was read as TRPV1 PAM 4, CtBP-E1A inh 1, Sfp inh 9%, Six1-Eya2 blk 2, PINK1 expr mod -0.6%, D2 ag -1.8 and D2 PAM 4.
Screening CCOC(=O)C1CCCN(c2nc3ccccc3nc2NS(=O)(=O)c2ccc(C)cc2)C1 (stereo not given) returned TRPV1 PAM -2, CtBP-E1A inh 0, Six1-Eya2 blk 1, PINK1 expr mod -2.9%, D2 ag 0.4 and D2 PAM 28.
For COc1ccccc1NS(=O)(=O)c1cccc(C(=O)N/N=C/c2ccc(N3CCOCC3)cc2)c1 the results were TRPV1 PAM 5, CtBP-E1A inh -17, Sfp inh 13%, Six1-Eya2 blk -5, PINK1 expr mod 4.3%, D2 ag 0.0 and D2 PAM 13.
